Bioassay records (PubChem BioAssay)
miR-21 FLuc: qHTS Assay for Modulators of miRNAs and/orActivators of miR-21 | Potency, µM (series often up to 38.3 µM), inactives show at the top dose reporter change, positive = more light | 340,000 tested, under 10 active | HeLa miR-21 FLuc reporter, luciferase, 48 h; active = well fitted rising curve with a large enough effect; inconclusive = small, poorly fitted or top-dose-only effect; inactive = no such curve, though single readings can be large or run the other way;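 further: % of control where 0% means no effect; miR-21 action dims this reporter so a rising signal means less miR-21 action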
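Compounds were titrated across several concentrations (up to approximately 40 uM) and incubated 48 hours with HeLa miR-21-FLuc reporter cells (miR-21 target sequence downstream of FLuc, endogenous miR-21). Readout was firefly luciferase luminescence after lytic detection reagent.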
GLA inh pH 4.5: qHTS Assay for Inhibitors of Human alpha-Galactosidase at pH 4.5; Alpha-galactosidase A (Homo sapiens), P06280; 230,000 tested, under 10 active; activity change, negative = inhibition, % at 105 µM; purified enzyme, 4-MU-alpha-Gal fluorescence, pH 4.5; AID 1467, 2008; inconclusive = small, poorly fitted or top-dose-only inhibition, or a rising curve; inactive = flat fitted curve, though single readings scatter; no compound was filed as active;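 further: 0% = full activity with enzyme and -100% = basal without enzyme; dose as in the result columns while the protocol names 77 µM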
Rango dissoc inh: qHTS Assay for Inhibitors of RanGTP induced Rango (Ran-regulated importin-beta cargo) - Importin beta complex dissociation; Snurportin-1 (Homo sapiens) + GTP-binding nuclear protein Ran (Homo sapiens) + Importin …; Biochemical FRET Rango-importin beta, RanGTP-induced dissociation; Potency, µM (top dose mostly 46.1 µM), inactives show top-dose activity change, negative = inhibition; hit rate 0.071% among 340,000; active means falling FRET ratio curve, often poorly fitted, with flat reads before Ran was added; inconclusive means other falling curves, or compound fluorescence or quenching; inactive means flat or rising ratio curve;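 further: potency means the concentration at half of the fitted maximal effect; % of control where 0% means no effect; nearly all actives have a fitted effect of over 45% in size; -100% = wells without RanGTP and RCC1; the record marks most hits as doubtful in a second field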
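Recombinant Rango FRET biosensor (EYFP–snurportin 1 IBB–cerulean CFP10) at 0.1 uM premixed with 0.25 uM importin beta in PBS, 1 mM DTT, 0.02% Tween-20, 0.1% BSA. Compound added 5 min; RanGTP-RCC1 (0.6 uM Ran, 2 mM GTP, 0.2 uM RCC1) then triggers release, read at 45 min.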
Rango-impB inh: qHTS Assay for Inhibitors of Rango (Ran-regulated importin-beta cargo) - Importin beta complex formation; hit rate 0.031% among 340,000; Rango CFP/YFP FRET sensor + importin beta, 45 min; Potency, µM (highest dose often 92.2 µM), without a hit: top-dose inhibition of complex formation; Importin subunit beta-1 (Homo sapiens), Q14974; active = rising FRET ratio curve, often small or poorly fitted; inconclusive = mostly compound fluorescence or quenching in the first reads; inactive = flat curves in all reads;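 further: potency means the concentration at half of the fitted maximal effect; 0% = DMSO wells and 100% = buffer wells lacking importin beta; nearly all actives have a fitted effect of over 15% in size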
Target sequence (Q14974 whole entry, looked up): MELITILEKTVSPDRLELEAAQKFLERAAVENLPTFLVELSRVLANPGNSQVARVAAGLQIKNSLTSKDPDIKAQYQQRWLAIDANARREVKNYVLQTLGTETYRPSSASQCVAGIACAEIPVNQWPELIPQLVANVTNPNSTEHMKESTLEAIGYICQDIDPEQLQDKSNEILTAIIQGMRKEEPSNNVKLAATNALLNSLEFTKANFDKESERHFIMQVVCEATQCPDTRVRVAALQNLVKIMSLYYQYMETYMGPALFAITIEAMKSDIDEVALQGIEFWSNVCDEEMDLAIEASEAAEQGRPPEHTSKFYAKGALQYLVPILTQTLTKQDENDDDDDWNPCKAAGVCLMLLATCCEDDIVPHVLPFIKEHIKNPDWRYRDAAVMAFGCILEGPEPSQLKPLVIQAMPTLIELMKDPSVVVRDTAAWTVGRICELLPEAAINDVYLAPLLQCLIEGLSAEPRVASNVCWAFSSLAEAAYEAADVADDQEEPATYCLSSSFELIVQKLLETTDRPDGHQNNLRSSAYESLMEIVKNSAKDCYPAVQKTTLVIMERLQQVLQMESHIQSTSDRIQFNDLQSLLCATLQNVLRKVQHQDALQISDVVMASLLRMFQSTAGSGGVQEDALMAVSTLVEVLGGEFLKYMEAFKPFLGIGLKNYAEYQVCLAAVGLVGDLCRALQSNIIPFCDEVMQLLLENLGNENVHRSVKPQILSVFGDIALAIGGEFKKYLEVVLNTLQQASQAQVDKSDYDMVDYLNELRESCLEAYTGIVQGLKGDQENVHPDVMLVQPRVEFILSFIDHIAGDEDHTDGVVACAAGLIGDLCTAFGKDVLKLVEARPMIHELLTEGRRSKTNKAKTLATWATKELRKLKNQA
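Inhibition scored from the CFP 486 nm/YFP 530 nm FRET ratio 45 min after adding 0.125 microM importin beta to 50 nM Rango biosensor preincubated 5 min with compound (room temperature, PBS with DTT, Tween-20, BSA). No-importin wells as positive control.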
The depositor's hits bear a star; ? = inconclusive; . = not tested or not shown; & = joins results of further samples.

SMILES	miR-21 FLuc	GLA inh pH 4.5	Rango dissoc inh	Rango-impB inh
O=C1NC(=O)C2(CCCCC2)N1	.	.	30%	3.7%
Cc1ccc(-c2[nH]c3ccccc3c2SCCNC(=O)c2ccc(S(=O)(=O)N3CCOCC3)cc2)cc1	?	-4	3%	1.9%
Cc1cc(C)n(CC(=O)N/N=C/c2ccc3c(c2)OCO3)n1	-5%	1	-12%	0.0%
COc1ccccc1-n1c(N)c(C(=O)NCC2CCCO2)c2nc3ccccc3nc21 (stereo unspecified)	0%	1	?	?
Cc1cc(C)cc(N=c2c([N+](=O)[O-])nn(-c3cccc(Cl)c3)n2O)c1	1%	-3	6%	0.4%
CC1CCc2c(sc3nc(CSc4nnnn4C)[nH]c(=O)c23)C1 (stereo unspecified)	-37%	-3	-15%	?
Cc1ccc(-n2c(SCc3cc(=O)n4ccsc4n3)nnc2-c2cccnc2)c(C)c1	-8%	2	16%	2.4%
COc1ccc(-c2nn(C)c3sc(C(=O)NCCN(C)C)cc23)cc1OC	8%&19%	.	15%	0.2%
Cc1ccc2[nH]c3c(=O)n(CC(=O)NCCCN(C)Cc4ccccc4)ncc3c2c1	2%	.	1%	0.1%
O=C(c1cccc(C(F)(F)F)c1)C1CCCN(C(=O)CCCn2cncn2)C1 (stereo unspecified)	-9%	-3	5%	-0.2%
CN1CCCN(C(=O)Cc2c(Cl)cccc2Cl)c2nc3ccccc3nc21	-1%	-4	?	?
C/C(=N\NC(=O)c1ccco1)c1ccc(-c2ccccc2)cc1	-73%	.	-15%	-3.2%
CCc1nnc(NC(=O)c2ccc(S(=O)(=O)NCC(C)C)cc2)s1	-12%	2	18%	-0.2%
CC(=O)N1N=C(c2ccccc2)CC1c1cn(Cc2ccccc2)c2ccccc12 (stereo unspecified)	22%	-14	-6%	?
COc1ccc(C)cc1NC(=O)CCS(=O)(=O)c1ccc2c(c1)oc(=O)n2C	1%	.	8%	0.9%
N#Cc1cc([N+](=O)[O-])ccc1NCCCn1ccnc1	0%	.	-14%	0.0%
COc1ccc(-c2cc(-c3ccccc3)no2)cc1	.	.	15%	4.0%
Cc1cccc(N2C(=O)C3CCC(c4ccccc4)CC3C2=O)c1 (stereo unspecified)	-4%	-7	-4%	2.0%
CNc1nc(OCC(F)(F)F)nc(N2CCOCC2)n1	-11%	1	-3%	-0.1%
COCCn1nc2cc(C(=O)NCc3cc(C(F)(F)F)cc(C(F)(F)F)c3)ccc2c1OC	-11%	2	-2%	4.8%
CCOc1ccc(CCNC(=O)CN2C(=O)NC(CCSC)C2=O)cc1OCC (stereo unspecified)	-3%	-2	-9%	-0.4%
COc1ccc(Br)c(C(=O)OCC(=O)NC(=O)NC2CCCC2)c1	.	.	-18%	2.1%
COc1ccccc1C(=O)NC(=O)COC(=O)c1nc2nc(C)cc(C)n2n1	.	.	1%	-8.6%
COc1ccc(OC)c(C2CC(=O)C(C)C(c3cc(OC)ccc3OC)N2)c1 (stereo unspecified)	-3%	-13	-2%	-4.4%
CCC(=O)Nc1ccc(S(=O)(=O)Nc2cc(C)on2)cc1	-1%	6	-8%	-1.5%
CC1=C(C(=O)OC(C)C)C2(O)C(=O)c3ccccc3C2(O)N1 (stereo unspecified)	-4%	-23	-15%	-1.7%
CC(C)(O)CC[C@H](OC(=O)c1ccccc1)[C@](C)(O)[C@H]1CC[C@@]2(O)C3=CC(=O)[C@@H]4C[C@@H](O)[C@H](O)C[C@]4(C)C3CC[C@]12C (stereo partly specified)	0%	.	-6%	-0.8%
Cc1ccc2oc(-c3ccccc3C(=O)O)cc(=O)c2c1	-6%	11	?	?
O=C(CSc1nc(-c2ccc(Cl)cc2)cs1)Nc1cccc([N+](=O)[O-])c1	21%	7	4%	-4.6%
O=C(COC(=O)c1cc(Br)ccc1O)c1ccc(F)cc1	.	.	-14%	-2.7%

The list goes on, overlapping the part above by 6 compounds.
SMILES	miR-21 FLuc	GLA inh pH 4.5	Rango dissoc inh	Rango-impB inh
CCC(=O)Nc1ccc(S(=O)(=O)Nc2cc(C)on2)cc1	-1%	6	-8%	-1.5%
CC1=C(C(=O)OC(C)C)C2(O)C(=O)c3ccccc3C2(O)N1 (stereo unspecified)	-4%	-23	-15%	-1.7%
CC(C)(O)CC[C@H](OC(=O)c1ccccc1)[C@](C)(O)[C@H]1CC[C@@]2(O)C3=CC(=O)[C@@H]4C[C@@H](O)[C@H](O)C[C@]4(C)C3CC[C@]12C (stereo partly specified)	0%	.	-6%	-0.8%
Cc1ccc2oc(-c3ccccc3C(=O)O)cc(=O)c2c1	-6%	11	?	?
O=C(CSc1nc(-c2ccc(Cl)cc2)cs1)Nc1cccc([N+](=O)[O-])c1	21%	7	4%	-4.6%
O=C(COC(=O)c1cc(Br)ccc1O)c1ccc(F)cc1	.	.	-14%	-2.7%
CSc1ccc(CN(C)C(=O)CSCC(=O)Nc2ccc(C)cc2)cc1	.	.	4%	-0.3%
O=C(N/N=C/c1ccsc1)c1ccccn1	-53%	7	-12%	-1.9%
CC(=O)OCCNC(=O)Cn1cnc2c1c(=O)n(C)c(=O)n2C	-5%	-8	-10%	-3.0%
Cc1ccccc1C1CCCN(C(=O)c2cc(COc3c(F)cccc3F)on2)C1 (stereo unspecified)	-7%	-23	0%	0.5%
CC(C)(C)C1CCc2c(sc(N)c2C(N)=O)C1 (stereo unspecified)	20%	-6	-1%	?
COc1ccc(C2/C(=C(/O)c3ccc(F)cc3)C(=O)C(=O)N2c2ccccn2)cc1OC (stereo unspecified)	-12%	.	16%	-0.1%
O=C(CC(c1ccccc1)C1CCCCC1=O)c1ccco1 (stereo unspecified)	-43%	6	0%	0.2%
CCN(CC)c1ccc(/C=C(\C#N)C(=O)NCc2ccccc2)cc1	-11%	-4	?	?
CCCCNC(=S)NNC(=O)c1c(Cl)c(C)nn1C	-1%	5	3%	4.4%
COCCNC(=O)c1cc(-c2ccccc2OC)on1	-11%	1	12%	-1.9%
Cc1cc(OCC(=O)N(C)Cc2ccccc2)ccc1Cl	-53%	.	-10%	-0.7%
CCCCC(CC)CNC(=O)Cn1c(=S)[nH]c2ncccc2c1=O (stereo unspecified)	0%	0	.	.
CCOC(=O)CNc1c(-c2ccc(OC)cc2)nc2ccc(Cl)cn12	-35%	-2	-12%	0.0%
O=C(NCC(c1cccs1)N1CCOCC1)c1ccc(Cl)c([N+](=O)[O-])c1 (stereo unspecified)	2%	-2	-9%	1.2%
CCOc1ccccc1C(=O)NCC(=O)OCC(=O)N1C(C)CCCC1C (stereo unspecified)	-1%	2	-1%	-3.6%
O=C(NCCN1CCOCC1)N1c2ccccc2Sc2ccccc21	0%	-2	-2%	5.5%
CC(C)NC(=O)CSc1nnc2sc3ccccc3n12	-35%	1	-2%	-2.2%
CC1CN(C(=O)Nc2ccc(F)cc2)C2(CCCCCC2)O1 (stereo unspecified)	-3%	-11	13%	0.5%
CCN1CCN=C1Nc1ccccc1	.	.	0%	-0.1%
CC12CCCCC1(O)[N+](=O)C1=C(CCCC1)N2[O-] (stereo unspecified)	-2%	2	7%	1.5%
COC(=O)CSc1nnc(CCc2ccccc2)n1C	0%	.	18%	2.0%
O=C(O)C1C2OC3C(OC(=O)C31)C2Br (stereo unspecified)	.	.	20%	-1.9%
CC(NC(=S)Nc1ccccc1)C(c1cccs1)N1CCOCC1 (stereo unspecified)	3%	2	-12%	-0.3%
Cc1cccc(CN2CCc3c([nH]c4ccccc34)C2C(C)(C)C)n1 (stereo unspecified)	-1%	.	-8%	-2.5%
CCCCCCCCCNC(=O)[C@H](NC(=O)COc1ccccc1)[C@@H]1NC(C(=O)OC)C(C)(C)S1 (stereo partly specified)	.	.	1%	-3.9%
O=C(Nc1nnc(C2CCCC2)s1)C1CCN(S(=O)(=O)c2ccc(Cl)cc2)CC1	-11%	3	11%	-2.5%
COC(=O)C1=C(C)NC(=S)NC1c1ccc(OC(=O)c2ccco2)cc1 (stereo unspecified)	-2%	3	-5%	-2.3%
CCN(CC)C(=O)Cn1cc(C(=O)C(=O)N2CCN(c3ccccc3)CC2)c2ccccc21	1%	.	2%	1.6%
CCNc1nc(Oc2ccc(C(=O)OC)cc2)nc(N(C)C)n1	-5%	6	1%	-0.6%
Cc1ccc(C(=O)CC2(O)C(=O)N(C)c3ccccc32)s1 (stereo unspecified)	-7%	4	9%	-1.1%
CCOC(=O)CC1C(=O)NCCN1C(=O)c1ccc(Cl)cc1 (stereo unspecified)	-4%	.	2%	0.9%
O=C(NC1CCCN(Cc2ccc(Cl)cc2)C1)c1cccc(N2CCCC2=O)c1 (stereo unspecified)	10%	.	9%	-3.5%
Cc1onc(-c2ccccc2)c1C(=O)N1CCN(c2ccccc2)CC1	3%	.	-5%	-1.1%
Cc1cc(NC2CCCCC2)nc(-c2ccccc2O)n1	-30%	-5	0%	2.7%
CSC1=NCCN1C(=O)Cc1ccc(-c2ccccc2)cc1	-19%	-13	-1%	-1.4%
CC(C(=O)NCC1CCCO1)N(C(=O)c1snc(C(N)=O)c1N)c1ccccc1 (stereo unspecified)	-9%	1	2%	-2.2%
CC(C(=O)Nc1ccc2c(c1)OCCO2)N(C)CC(=O)Nc1ccccc1Br (stereo unspecified)	.	.	0%	-0.7%
COc1ccc(CCN(C)C(=O)C(CCSC)NC(=O)c2ccco2)cc1OC (stereo unspecified)	.	.	-3%	-0.9%
CC(c1ccon1)N(C)C(=O)CCc1nnc(Cc2ccc(-c3ccccc3)cc2)o1 (stereo unspecified)	-6%	-6	19%	2.7%
CCN(CC)c1ccc(CNCc2cccs2)cc1	-13%	6	-2%	4.6%
Cc1c(C(=O)O)sc(=S)n1-c1ccc(Cl)cc1	-3%	-5	1%	0.1%
Cc1ccc(S(=O)(=O)N(C)C)cc1NC(=O)CN1c2cccc3cccc(c23)S1(=O)=O	.	.	?	-2.3%
OCCNc1nc2ccccc2n1-c1ccccc1	0%	0	0%	-4.0%
O=C(CCn1cnc2ccccc2c1=O)Nc1ccc(S(=O)(=O)N2CCCC2)cc1	-6%	5	10%	2.7%
CCc1ccc(CN2CCC(n3nccc3NC(=O)c3ccccc3)CC2)o1	0%	.	13%	-1.6%
Cc1cccc(CC(=O)Nc2ccc(C(=O)N3CCCCC3)cc2)c1	-21%	.	-5%	4.0%
CCc1cccc(C)c1NC(=O)COC(=O)c1cc([N+](=O)[O-])ccc1N1CCOCC1	.	.	-5%	-0.2%
CCOc1ccc2nc(NC(=O)CN3CCC(n4nnc5cc(F)ccc54)CC3)sc2c1	21%	-5	3%	2.4%
CCn1c(O)c(/C=C2\C=Nc3ccccc32)sc1=Nc1ccc(C)cc1	-13%	-2	0%	0.3%
CC(C)C(=O)Nc1cccc(C(=O)NCc2ccc3c(c2)OCO3)c1	2%	-24	4%	-3.1%
COc1ccccc1-c1sc2cc3c(cc2c1C#Cc1ccccn1)OCO3	.	.	-29%	?
COc1ccc(S(=O)(=O)NCCc2cn3nc(C)c(C)nc3n2)cc1F	3%	.	?	?
CN(CCC1CCCCO1)C(=O)CCc1nnc(CCCCc2ccccc2)o1 (stereo unspecified)	-20%	5	-8%	2.0%
O=C(Nc1ccc2nccnc2c1)c1ccco1	-40%	-10	15%	0.7%
COc1ccc(N(CC(=O)NCCSCc2cccc(Cl)c2)S(C)(=O)=O)cc1	-4%	.	-10%	2.4%
O=c1c2c(O)cc(O)cc2oc2ccc(O)c(O[C@@H]3O[C@H](CO)[C@@H](O)[C@H](O)[C@H]3O[C@H]3O[C@H](CO)[C@@H](O)[C@H](O)[C@H]3O)c12	.	.	-6%	-0.2%
Cc1ccc(N2C(=O)c3cccc4c(N)ccc(c34)C2=O)c2cccnc12	22%	7	?	?
O=C(CN1C(=O)NC(Cc2c[nH]c3ccccc23)C1=O)NC1CCCCC1 (stereo unspecified)	.	.	0%	-0.9%

Some of the compounds tested; rates above refer to the full screens.
